HepG2 – HepG2 cell cytotoxicity, dose response, cytotoxicity control, ATP luminescence, cherry-pick, activator set 2 (AID 1053143). hit rate 3.7% among 3,400. HepG2 viability, CellTiter-Glo ATP luminescence, 72 h. AC50 in µM for hits, for the others activity change, negative = cytotoxicity, % at the top dose, mostly 26 µM;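 active = fitted AC50 at most twice the highest valid dose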;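 note: 0 = neutral control and -100 = positive control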
* hit, by the source's call; [ ] = remark or other dose.

SMILES	HepG2
O=c1sc2ccccc2n1CCOc1ccccc1	-11%
O=C(CC(c1ccccc1O)N1CCCCC1)N1CCCCC1 (centres undefined)	-20%
COc1ccc(C2CC(c3ccc4ccccc4c3OC(C)=O)=NN2C(C)=O)cc1 (centres undefined)	26µM*
O=C(Nc1nnc(-c2ccc3c(c2)OCCO3)o1)C1CCCCC1	-19%
Cc1ccnc(NC(=O)C2CC(=O)N(c3ccc4c(c3)OCCO4)C2)c1 (centres undefined)	-2%[12 µM]
CN(/N=C/c1ccncc1)c1cnc2ccccc2n1	-1%
O=C(OCc1nc2ccsc2c(=O)[nH]1)c1ccc(Cl)nc1	6%
c1ccc(CSc2ccc(-c3ccco3)nn2)cc1	-13%
CCOc1ccc(C(C)=O)cc1CSc1nnc(-c2cccs2)n1CC1CCCO1 (centres undefined)	-7%
O=C(Nc1nc2ccc(Cl)cc2s1)C1CC1	-16%
O=C(Nc1ccc(N2CCCC2)cc1)c1ccc2ccccc2c1	-7%
Cc1ccc(/C(=N/Nc2ncnc3ccccc23)C(=O)O)cc1	-6%
Clc1ccccc1CSc1nc2ccncc2[nH]1	-20%
Nc1ccccc1SC(CC(=O)c1ccccc1)c1ccc([N+](=O)[O-])cc1 (centres undefined)	-14%
CC(C)(C)c1ccc(OCc2nc(-c3ccccn3)no2)c(Br)c1	-5%[6 µM]
CC(C)CC(=O)N/C(N)=N/c1nc2ccccc2o1	-15%
COc1ccc(-c2cc3ccc(F)cc3cn2)cc1	-27%
COc1cccc(/C=N/Nc2ccccc2C(=O)O)c1O	-12%
O=C(NCCc1ccc(Cl)cc1)c1ccc2c(c1)OCO2	-5%
COc1ccc(CCN2C(=NC(C)=O)SC3CS(=O)(=O)CC32)cc1OC (centres undefined)	1%

Two compounds drawn at random from those above, as already listed:
SMILES	HepG2
Nc1ccccc1SC(CC(=O)c1ccccc1)c1ccc([N+](=O)[O-])cc1 (centres undefined)	-14%
O=c1sc2ccccc2n1CCOc1ccccc1	-11%

More results follow:
SMILES	HepG2
Fc1ccc(CNCc2ccccc2Cl)cc1	-7%
CCCCN(CC)C(=O)c1cc2cc3ccc(OC)cc3nc2o1	1%
COC(=O)[C@H](CCSC)NC(=O)c1cccnc1SC	-5%
CCCc1noc(-c2ccc(-c3ccccc3)cc2)n1	2%
Clc1ccc2oc(-c3ccccc3)cc(=NCCCN3CCOCC3)c2c1	-1%
Fc1ccccc1-c1cc2ccccc2cn1	-15%
O=C(CCSCc1ccccc1F)NCCc1ccccc1	9%
Cc1ccc(C(=O)c2sc3nc4c(cc3c2N)CCC4)cc1	-17%
CCOc1ccc2nc(N3C(=O)CNC3=S)sc2c1	-17%
O=C(/C=C/c1ccc(N2CCOCC2)cc1)c1ccccc1	0%
COC(=O)c1ccc(/C=N/N2CCN(Cc3ccc(Cl)cc3)CC2)cc1	5%
Cc1nc(C(C)NC(=O)CCc2nnc(CCCc3ccccc3)o2)c(C)s1 (centres undefined)	6%
Cc1c(C(=O)N2CCCc3ccccc32)sc2nc(-c3ccccc3)cn12	1%
Cc1ccc(C(=O)Nc2cc3c(oc2=O)CCCC3=O)cc1	-16%
O=C(Nc1nnc([C@@H]2C[C@H](O)[C@@H](CO)O2)s1)Nc1ccccc1F	-25%
CCc1cc(C(=O)Nc2ccc(C)cc2Br)cs1	2%
COc1cccc(NC(=O)c2cccc(C)c2[N+](=O)[O-])c1	1%
O=C(/C=C/Nc1ccc(Oc2ccccc2)cc1)c1ccco1	4%
CN(C)S(=O)(=O)Oc1cccc(C(=O)Nc2cccc(Cl)c2)c1	-26%
COc1ccccc1C(=O)Nc1ccc(Br)cc1C	-8%
Cn1cccc1C(=O)OCC(=O)c1cc2ccccc2o1	16%
Brc1ccccc1-n1nnc(-c2cnc3ccccc3c2)n1	-7%
O=C(Nc1ccc(NC(=O)c2cccs2)cc1Cl)c1ccco1	13%
Cc1csc(=NC(=O)c2ccccc2)n1C	-4%
COc1ccc(-c2ccc(SCC(=O)Nc3cc(C)on3)nn2)cc1OC	-11%
CCN1CCN(Cc2c3ccccc3cc3ccccc23)CC1	-15%
Cc1ccc(-c2cc(NC(=O)c3ccccc3)on2)cc1	-14%
N#Cc1ccccc1NC(=O)CSC1=Nc2ccccc2C2CC=NN12 (centres undefined)	-13%
O=C(O)c1ccccc1-c1ccccc1C(=O)NNc1ccccc1	-12%
CN1CCN(c2ccc(NC(=O)c3ccc(-c4ccccc4F)o3)cc2)CC1	26µM*
Nc1ccc(-c2nc3ccccc3[nH]2)cc1	-10%
CSc1ncccc1C(=O)OCC(=O)c1cc(C)n(C)c1C	-18%
COc1cccc(/C=C/C(=O)c2c(O)cc(C)oc2=O)c1O	-13%
Fc1ccc(/C=N/Nc2ccccn2)cc1	-1%
Nc1nc(Nc2ccccc2)sc1C(=O)c1ccccc1	19µM*
COc1cccc2oc3cc(C#Cc4ccccn4)ccc3c(=O)c12	-8%
Cc1nn(C)cc1/C=C/C(=O)c1cccs1	-16%
O=C(NC(=O)c1ccccc1)C1=C(N2CCCC2)COC1=O	-10%
O=C(O)CN1C(=O)/C(=C/C=C/c2ccccc2)SC1=S	13%
O=C(Nc1cccc(F)c1)Nc1ccc2c(c1)OCO2	-18%
O=Nc1c(-c2c(O)[nH]c3cc(Br)ccc23)[nH]c2ccccc12	-40%
O=C(c1ccccc1)c1ccc2nc(-c3ccco3)c(-c3ccco3)nc2c1	-32%
O=C(Nc1ccc2c(c1)CCC2)Nc1ccc2c(c1)OCO2	-4%
COc1ccc(/C=N/Nc2nc3ccccc3o2)cc1O	-3%
CN1CCN(c2ccc(NC(=O)CSc3ccccc3)cc2F)CC1	-3%
O=c1sc(/C=N/Nc2ccccc2)c(Cl)n1Cc1ccccc1	-8%[6 µM]
Oc1ccc(-c2nc3ccccc3s2)c(O)c1	-2%
Cn1c(-c2ccc(F)cc2)cc2onc(-c3ccccc3Cl)c2c1=O	-25%
c1ccc(-c2nc3c4ccccc4ccn3c2CN2CCOCC2)cc1	-10%
CC(=O)C1=C(c2cccc([N+](=O)[O-])c2)N(C(C)=O)n2c(C)nnc2S1	-5%
C=CCOc1ccc(/C=C2\SC(=S)N(N3CCOCC3)C2=O)cc1	2%
Cc1ccsc1-c1nc(-c2ccccc2)c(-c2ccccc2)[nH]1	-22%
COc1ccc2nc(Nc3nc(C)c(C(C)=O)s3)sc2c1	-9%
Cc1ccc2cc(CCNC(=O)c3ccco3)c(=O)[nH]c2c1C	3%
O=C(O)c1cccc(NC(=O)c2ccc(Cl)c(S(=O)(=O)N3CCCCCC3)c2)c1	-6%
Cc1ccc(Cc2c(-c3cccc(Cl)c3)nc3ccc(Br)cn23)cc1	2%
COc1ccc(C(=O)CCNc2cccc(Cl)c2)cc1	-10%
COc1ccc(CCNC(=O)c2cc(-c3ccco3)on2)cc1OC	26µM*
O=C(Cc1ccccc1)Nc1nc(-c2cccs2)cs1	-19%
Nc1nnc(CC(=O)N/N=C/c2ccc(-c3cccc(C(=O)O)c3)o2)s1	0%[12 µM]
Other entries:
SMILES	HepG2
c1ccc(N=Nc2ccc(C3=NCCO3)cc2)cc1	-10%
CCOC(=O)c1ccc(-c2ccc3c(c2)CCC3)nc1C	-20%
Cc1cc(C)c2c(N)c(C(=O)N/N=C/c3ccccc3)sc2n1	-4%
Cc1ccc2nc(SCC(=O)c3ccc(O)cc3O)[nH]c2c1	-4%
Cc1ccc2oc(C(=O)Nc3cc(C)on3)c(C)c2c1	-10%
COc1cc(OC)cc(-c2cc3ccc(F)cc3cn2)c1	-15%
Cc1ccccc1OCC(=O)Nc1ccc2c(c1)OCCO2	-18%
CC(C)CNC(=O)CSc1nc2nn(-c3ccccc3)c(=O)c-2c2n1CCCCC2	15%
Cc1cc(N2CCOCC2)nc2cc(O)ccc12	2%
COc1ccc2nc(N3C(=O)CNC3=S)sc2c1	-16%
O=C(CC(=O)c1ccccc1)Nc1ccccc1	0%
N/C(=N\OC(=O)CSc1ccccc1)c1ccc([N+](=O)[O-])cc1	24%
Cc1nc(Nc2nc3ccccc3o2)nc(C)c1C(=O)Nc1ccc(F)cc1	19%
N/C(=N\OC(=O)COc1ccc(Br)cc1Cl)c1ccncc1	22%
Cc1nn2cc(-c3ccc(Cl)cc3)nc2s1	-8%
CCOC(=O)c1sc(-c2ccccc2)cc1N	-3%
O=C(CNC(=O)c1ccccc1)OCC(=O)N1N=C(c2ccc(Cl)cc2)CC1c1ccco1 (centres undefined)	1%
CCCCNc1c(-c2ccc(SC3CCCCC3)cc2)nc2ccccn12	-6%
CC(C)(C)C(=O)Nc1ccc(C(=O)Nc2cccnc2)cc1	4%
O=c1oc(CCCO)cc2ccc(C#Cc3ccsc3)cc12	-9%
COc1ccc(-c2ccc3sc4ccccc4c(=O)c3c2)cn1	-23%
O=C(Nc1nc(-c2ccc(Cl)cc2)cs1)C1CCCO1 (centres undefined)	-24%
O=C(C1CCCN(S(=O)(=O)c2ccc(F)cc2)C1)N1CCOCC1 (centres undefined)	-9%
Cn1c(O)c(C=Nc2ccc(Br)cc2)sc1=O	-15%
COc1cccc(CNC(=O)C(Cc2ccccc2)n2cccc2)c1 (centres undefined)	2%
Cc1nn(-c2ccccc2)c(C)c1/C=N/Nc1nc2ccccc2[nH]1	26µM*
CCN(C(=O)C=Cc1ccco1)c1ccccc1	-21%
O=C(Cn1cnc2c(nnn2-c2cccc(Cl)c2)c1=O)N1CCOCC1	-14%
O=C(CSc1ccc([N+](=O)[O-])cn1)Nc1ccc(N2CCOCC2)cc1	14%
O=C(Nc1nc2ccccc2[nH]1)c1cccc(Cl)c1	-18%
COc1cc(Cl)ccc1OCc1cc(C(=O)N(C)CC2CCCCO2)no1 (centres undefined)	-5%
CCOC(=O)c1c(C)[nH]c(N=Nc2ccc(OC)cc2)c1C	-1%
Cc1ccnc(NC(=O)c2ccc([N+](=O)[O-])s2)c1	-24%
Cc1ccc(CN2CCN(C3CCCC3)C(CCO)C2)s1 (centres undefined)	-4%
N/C(=N\OC(=O)c1ccco1)c1cccc(Br)c1	-29%
c1ccc(NCc2nc(-c3ccccc3)no2)cc1	12%
Cc1nc(NC(=O)C2CCCC2)sc1Cc1ccc2c(c1)OCO2	-14%
O=C(Nc1ccc2c(c1)OCCO2)C1CCCN(c2ncccn2)C1 (centres undefined)	-18%
COC(=O)c1sc(-c2ccc(C(C)(C)C)cc2)cc1NC(=O)c1ccccc1C(=O)O	0%
Cc1ccc(S(=O)(=O)NN=Cc2ccccc2Cl)cc1	12%
Cc1cc(NC(=O)CSc2nc3c(cc2C#N)CCC3)no1	27%
C=CCc1cccc2cc(C(=O)Nc3ccc(NC(C)=O)cc3)c(=O)oc12	-10%[12 µM]
COC(=O)c1sc2nc3c(cc2c1N)CCCC3	-3%
Cc1ccc(N=Nc2c(N)nn(-c3ccccc3)c2N)cc1	-2%
CC(=O)Cn1cnc2sc(-c3ccccc3)cc2c1=O	5%
Cc1ccc(NC(=O)C(c2ccccc2)N2CCN(CC(=O)N3CCOCC3)CC2)cc1 (centres undefined)	-9%
Oc1c(C(Nc2ccccn2)c2ccccn2)ccc2cccnc12 (centres undefined)	22µM*
Cc1ccc(CONC(=O)c2ccc(Cl)cc2)cc1	-25%
Cc1ccnc(NC(=O)c2ccc(S(=O)(=O)N3CCC(C)CC3)cc2)c1	-2%
CC1CN(Cc2ccccc2)c2nc3c(c(=O)[nH]c(=O)n3C)n2C1 (centres undefined)	-1%
C(=N\Nc1nc(-c2ccccc2)cs1)/c1cccs1	-15%
COc1cc(/C=N/OCC(=O)NC2CCCCC2C)ccc1OCc1ccc(Cl)cc1 (centres undefined)	-23%
CC1CCCN(C(=O)c2ccc(-c3ccccc3Cl)o2)C1 (centres undefined)	4%
Cc1cc(NC(=O)c2cccc(F)c2)ncc1NC(=O)c1ccco1	26µM*
COc1ccccc1NC(=O)C(=O)Nc1ccccn1	2%
COCc1nc(-c2ccc(-c3ccc(C)cc3)nc2OC)no1	9%
COc1ccc2cc(-c3ccsc3)ncc2c1	-20%
CCCC(=O)Nc1sc(C(=O)Nc2cccc(N)c2)c(C)c1C(=O)OC	-12%
O=C(C=NNc1ccccc1)c1ccccc1	-23%

Entries from the list above that contain a furan ring, fused or not:
SMILES	HepG2
c1ccc(CSc2ccc(-c3ccco3)nn2)cc1	-13%
CCCCN(CC)C(=O)c1cc2cc3ccc(OC)cc3nc2o1	1%
O=C(/C=C/Nc1ccc(Oc2ccccc2)cc1)c1ccco1	4%
Cn1cccc1C(=O)OCC(=O)c1cc2ccccc2o1	16%
O=C(Nc1ccc(NC(=O)c2cccs2)cc1Cl)c1ccco1	13%
CN1CCN(c2ccc(NC(=O)c3ccc(-c4ccccc4F)o3)cc2)CC1	26µM*
O=C(c1ccccc1)c1ccc2nc(-c3ccco3)c(-c3ccco3)nc2c1	-32%
Cc1ccc2cc(CCNC(=O)c3ccco3)c(=O)[nH]c2c1C	3%
COc1ccc(CCNC(=O)c2cc(-c3ccco3)on2)cc1OC	26µM*
Nc1nnc(CC(=O)N/N=C/c2ccc(-c3cccc(C(=O)O)c3)o2)s1	0%[12 µM]
Cc1ccc2oc(C(=O)Nc3cc(C)on3)c(C)c2c1	-10%
O=C(CNC(=O)c1ccccc1)OCC(=O)N1N=C(c2ccc(Cl)cc2)CC1c1ccco1 (centres undefined)	1%
CCN(C(=O)C=Cc1ccco1)c1ccccc1	-21%
N/C(=N\OC(=O)c1ccco1)c1cccc(Br)c1	-29%
CC1CCCN(C(=O)c2ccc(-c3ccccc3Cl)o2)C1 (centres undefined)	4%
Cc1cc(NC(=O)c2cccc(F)c2)ncc1NC(=O)c1ccco1	26µM*

A portion of the library; count on the stated rates, not on these rows.
